From PubChem
VACV mCherry inh = vaccinia inhibition (mCherry reporter); Vaccinia virus mCherry reporter infection, fluorescence; about a quarter of the inactives have no number; Potency, µM (doses to about 36.5 µM), without a hit: at the top dose activity change, negative = inhibition, most hits filed as inhibitors; actives 0.63% (n = 310,000); active = well fitted inhibition curve with a large enough effect; inconclusive = small, poorly fitted or top-dose-only effect; inactive = no such curve, though single readings can be large or run the other way; tested in A549 cells; note: nearly all actives have a fitted effect of over 35% in size; inactives centre near -10
Vaccinia Venus = inhibitors of vaccinia virus (Venus reporter) | Vaccinia virus Venus reporter expression, fluorescence | Potency, µM (doses to about 36.5 µM), for inactives: at the top dose activity change, negative = inhibition, most hits filed as inhibitors | actives 0.46% (n = 330,000); active means well fitted inhibition curve with a large enough effect; inconclusive means small, poorly fitted or top-dose-only effect; inactive means no such curve, though single readings can be large or run the other way; tested in A549 cells; note: nearly all actives have a fitted effect of over 30% in size; inactives centre near -10
Active calls of the source: *; i = inactive; ? = inconclusive; . = not tested or not shown; & = joins results of further samples; [ ] = another dose, or the depositor's remark. % is set by controls: 0 for no effect and ±100 for the full control effect; potency is the fitted concentration of half-maximal effect.

Every second line gives: VACV mCherry inh	Vaccinia Venus
CCOc1ccc(S(=O)(=O)NCCC(=O)NNC(=O)c2ccc(F)cc2)cc1
→ 1.2%	2.4%
COC(=O)c1nn(-c2ccccc2)c(Cl)c1/C=N/OC(=O)c1ccc(Cl)c(Cl)c1
→ -20.8%	-19.3%
COc1ccc(C(OC(=O)c2ccco2)C(=O)NCC2CCCO2)cc1 (stereo not given)
→ -5.5%	-14.1%
CCCCC(=O)NS(=O)(=O)c1ccc(NS(C)(=O)=O)cc1
→ -8.3%	0.0%
O=C(C(c1ccccc1)c1ccccc1)N1CCN(CC(O)COc2ccccc2)CC1 (stereo not given)
→ -2.8%	-20.9%
Cc1cc(Br)ccc1NC(=O)CNC(=O)CSc1nccn1C
→ -22.7%	-18.4%
O=[N+]([O-])c1cc(Br)ccc1C[n+]1ccccc1
→ i	-19.9%
S=C(/N=c1/sccn1Cc1ccccc1)NC1CC1
→ -19.7%	-7.1%
CCOc1ccc(NC(=O)Cn2c(=O)n(Cc3ccco3)c(=O)c3ccc(C(=O)NC4CCCC4)cc32)cc1
→ -13.1%	-27.1%
Cc1ccc(NC(=O)CN(c2ccc(C)cc2)S(=O)(=O)c2cccc3nonc23)cc1
→ -21.1%	-9.4%&-10.8%
Cc1cccc([N+](=O)[O-])c1
→ i	-12.6%
CCn1c(-c2cccs2)nc2ccccc21
→ .	-11.2%
COc1ccccc1-n1c(SCC(=O)NC2CCCCC2)nc2c(c1=O)SCC2
→ -28.2%	-3.3%
CC(C)(CO)NC(=O)c1cnn(-c2ncc3c(n2)-c2ccccc2CC3)c1C1CC1
→ -13.6%	-7.6%
Cc1cc2c(c(=O)n1CCN(C)C)C(c1ccncc1)C(C#N)=C(N)O2 (stereo not given)
→ -11.8%	-3.9%
COc1ccc(C(=O)COC(=O)Cc2n[nH]c(=O)c3ccccc23)c(OC)c1
→ i	-9.8%
Cc1ccc(S(=O)(=O)N(C)Cc2ccccc2)cc1C(=O)N1CCCCC1
→ -4.8%	-17.7%
CC1(C)Cc2nc(Cl)c(C(=O)O)cc2CO1
→ -8.9%	-17.9%
Cc1c(Cl)cccc1NC(c1ccc(F)cc1)c1nnc(-c2ccccc2)o1 (stereo not given)
→ -16.4%	-9.8%
CN(C)c1nc(N)c(C#N)c(C#N)c1C#N
→ -3.2%	-6.7%
COc1cc(C(CC(=O)Nc2cc(C)ccc2C)N2Cc3ccccc3C2=O)cc(OC)c1OC (stereo not given)
→ 3.2%	-1.2%
Cc1cccc(C(=O)OCC(=O)NC(=O)c2ccccc2)c1O
→ -14.9%	-7.5%
COC(=O)CC1C(C)(C)C(=O)C2CC3=C(CC[C@]4(C)C3=CC(=O)OC4c3ccoc3)[C@@]1(C)C2=O (stereo not given in full)
→ 19.3%	0.0%
O=C1OCCC1C(=O)c1ccccc1 (stereo not given)
→ -23.8%	-14.2%
CCOC(=O)C1(C)CCN1C(=O)c1cc(-c2ccc(Cl)cc2)oc1C (stereo not given)
→ 27.0%	-12.3%
O=C(Nc1nc2ccccc2s1)C1c2ccccc2Oc2ccccc21
→ -21.0%	-14.0%
O=C1CN2C(=Nc3ccc(Cl)cc3C2c2ccccc2)CN1 (stereo not given)
→ ?	-17.7%
CC1(C)Cc2c(sc3c2c(=O)n(Cc2ccccc2)c2nncn32)CO1
→ .	1.1%
C[C@H](CO)N1C[C@H](C)[C@@H](CN(C)CC2CC2)Oc2c(NS(=O)(=O)c3ccccc3)cccc2C1=O
→ i	-8.7%
COCCNC(=O)C(NC(=O)C1CCCCC1)C12CC3CC(CC(C3)C1)C2 (stereo not given)
→ -11.2%	-12.6%
CC1=NN2C(=N)/C(=C\c3cc(C)n(-c4ccccc4)c3C)C(=O)N=C2S1
→ i	2.3%
Cn1cc(S(=O)(=O)c2ccc(Cl)cc2)c(=O)c2cc(F)c(N3CCOCC3)cc21
→ -10.2%	-15.3%
COC(=O)c1ccc2nc(-c3ccc(C#N)cc3)c(Cc3cccc(Cl)c3)n2c1
→ 4.6%	2.6%
Cc1cccc(CNC(=O)CCc2nnc(C3CCCCC3)o2)c1
→ i	-3.2%
Cc1ccccc1N1C(=O)C(Oc2ccc(Cl)cc2)C1CNC(C)(C)C (stereo not given)
→ -3.1%	-8.2%
CC(C)Cn1c(=O)c(C(=O)NCc2ccccn2)c(O)c2ccccc21
→ .	-6.1%
C=CCNc1nc(NC(C)(C)CO)nc(OC)n1
→ -0.5%	-1.9%
O=C(CCN1C(=O)/C(=C/c2ccc(F)cc2)SC1=S)NCCc1cnc[nH]1
→ i	31.4%[activator]
O=C(CSc1nnc(NC(=O)C2CC(=O)N(c3ccc(F)cc3)C2)s1)NCC1CCCO1 (stereo not given)
→ -18.3%	-2.8%
O=c1c2ccccc2nnn1CSc1nc2ccccc2[nH]1
→ -21.6%	-14.0%
Cc1c(NC(=O)Nc2ccccc2C(F)(F)F)sc2nc3n(c(=O)c12)CCC(C)CC3 (stereo not given)
→ -17.1%	-9.5%
O=C(NC1CC1)C(Cl)c1ccccc1 (stereo not given)
→ i	-6.7%
CCOC(=O)CN1C(=O)N[C@@H](CCc2ccccc2)[C@@H](C(=O)OC)[C@H]1C
→ -13.7%	-15.6%
Cc1cc(C(=O)NNC(=S)Nc2cccc(C(F)(F)F)c2)nn1C
→ ?	-15.4%
CN(C)c1ccc(-c2csc(C(O)c3ccc(F)c(F)c3)n2)cc1 (stereo not given)
→ -16.3%	-6.2%
COc1ccccc1C(=O)N1CCN(C(=O)c2ccncc2)CC1
→ -11.0%	-6.3%
C=CCn1c(O)c(C=NCCCn2ccnc2)c(=O)[nH]c1=O
→ i	11.4%
O=C1CCC(C(=O)OCC(=O)c2ccccc2)N1 (stereo not given)
→ -8.2%	-0.1%
Cc1ccccc1NC(=O)C(=Cc1ccc(C(=O)O)cc1)C(=O)Nc1ccccc1C
→ ?	?
CC(C)NC(=O)COc1ccc(/C=N/NS(=O)(=O)c2ccccc2)cc1
→ -19.6%[1.46 µM]	-18.3%
Cc1cc(C(=O)COC(=O)Cc2n[nH]c(=O)c3ccccc23)c(C)n1CC(F)(F)F
→ -19.9%	-8.8%
Cc1c(C(=O)N2CCCCCC2)c(S(=O)(=O)N(Cc2ccccc2)C(C)(C)C)c(C)n1C
→ -1.3%	-4.8%
CC1(C)CC(=O)C(C=Nc2ccncc2)=C(O)C1
→ i	-12.6%
Cc1ccc(NC(=O)CCN2C(=O)C3CCCCC3C2=O)c(O)c1 (stereo not given)
→ -13.0%	-3.3%
O=C(c1ccc(-c2ccccc2)cc1)N1CCCC1
→ -8.0%	-19.8%
COc1ccc(NC(=O)CSc2n[nH]c(-c3ccccc3)n2)cc1Cl
→ -20.2%	-20.8%
CC(=O)Nc1c(O)cc(Br)c2nonc12
→ 0.0%	-3.2%
Cc1nc(C(F)(F)F)ccc1C(=O)N1CCC1(C)C(=O)NS(=O)(=O)c1ccc(F)cc1F (stereo not given)
→ 10.1%	5.5%
CCOC(=O)c1c(C)[nH]c(C(=O)COC(=O)[C@H](C)N2C(=O)C3CCCCC3C2=O)c1C (stereo not given in full)
→ i	-13.7%
Cc1c(C)c2ccc(OCC(=O)N3CCN(c4ccccc4)CC3)cc2oc1=O
→ -11.6%[7.34 µM]	2.0%[7.34 µM]

A different layout for 3 compounds above:
SMILES	VACV mCherry inh	Vaccinia Venus
Cc1ccc(NC(=O)CN(c2ccc(C)cc2)S(=O)(=O)c2cccc3nonc23)cc1	-21.1%	-9.4%&-10.8%
Cc1cccc([N+](=O)[O-])c1	i	-12.6%
CCn1c(-c2cccs2)nc2ccccc21	.	-11.2%

Arranged by molar mass (lowest first): 3 of the compounds above
Every second line gives: VACV mCherry inh	Vaccinia Venus
C=CCn1c(O)c(C=NCCCn2ccnc2)c(=O)[nH]c1=O
→ i	11.4%
Cc1cccc(CNC(=O)CCc2nnc(C3CCCCC3)o2)c1
→ i	-3.2%
Cc1c(C)c2ccc(OCC(=O)N3CCN(c4ccccc4)CC3)cc2oc1=O
→ -11.6%[7.34 µM]	2.0%[7.34 µM]

Back to the main list; the two compounds before the break are reprinted first.
Every second line gives: VACV mCherry inh	Vaccinia Venus
CCOC(=O)c1c(C)[nH]c(C(=O)COC(=O)[C@H](C)N2C(=O)C3CCCCC3C2=O)c1C (stereo not given in full)
→ i	-13.7%
Cc1c(C)c2ccc(OCC(=O)N3CCN(c4ccccc4)CC3)cc2oc1=O
→ -11.6%[7.34 µM]	2.0%[7.34 µM]
CCOC(=O)c1[nH]c2ccc(OC)cc2c1NC(=S)N1CCN(c2cccc(Cl)c2)CC1
→ -1.7%	-21.1%
COc1ccc(OC)c(CN2CCN(C(=O)c3cccc(S(=O)(=O)Nc4ccccc4OC)c3)CC2)c1
→ -8.5%	-21.8%
CCOC(=O)N1CCN(C(=O)C(CC(C)C)NS(=O)(=O)c2ccc3c(c2)oc(=O)n3C)CC1 (stereo not given)
→ -6.3%	3.2%
O=C(NCCCn1ccnc1)C(=O)NCc1ccc(Cl)cc1
→ -1.5%	8.5%
O=C(CNS(=O)(=O)c1cccc(C(F)(F)F)c1)Nc1ccccc1F
→ i	-8.8%
CCC(C)c1ccc(C(C)NC(=S)NCc2ccc(F)cc2)cc1 (stereo not given)
→ ?	-28.9%
O=C(Nc1ccc(Br)cc1F)c1ccc2c(c1)N(Cc1ccccc1)C(=O)CS2=O (stereo not given)
→ -17.6%	-9.7%
O=C(CN1C(=O)c2cccc3cccc1c23)NCc1cccnc1
→ .	0.7%
Cn1c(N2C(=O)CC(Cc3ccccc3)C2=O)nc2ccccc21 (stereo not given)
→ .	-7.4%
O=C(Nc1ccc(Br)cc1)c1cccc(N2C(=O)C3C4CCC(C4)C3C2=O)c1 (stereo not given)
→ -26.1%	-24.5%
CCNC(=O)C1CC(=O)OC12CCCCC2 (stereo not given)
→ 0.3%	-4.0%
CN1CCN(S(=O)(=O)c2cccc(C(=O)N(Cc3ccccc3)c3ccccc3)c2)CC1
→ -19.9%	-27.4%
COc1ccccc1NC(=O)C1=C(C)Nc2nc(-c3cccs3)nn2C1c1cccc(O)c1 (stereo not given)
→ -28.6%	-15.9%
Cc1nc2ccccc2c(=O)n1/N=C/c1ccccc1OC(F)F
→ -15.4%	-5.5%
CCC(NC(=O)C(C)NC)C(=O)N1CCCC1C(=O)NC1CCCc2ccccc21 (stereo not given)
→ i	-7.6%
C=C(C)C(=O)N1CC2(CC(c3cccc(NC(=O)CC(c4ccccc4)c4ccccc4)c3)=NO2)C[C@H]1C(N)=O (stereo not given in full)
→ i	-29.0%
CCc1ccccc1N(CC)C(=O)c1cc2c(s1)-c1ccccc1OC2
→ 13.6%	11.9%
CC1(C)ON=C(c2ccc(C(F)(F)F)cc2)NC1=O
→ 7.9%	8.9%
COc1cccc(-c2cc3nc(NCc4ccc(C)cc4C)n(C)c(=O)c3s2)c1
→ i	-9.2%
CC(=O)OC1CC2C(C)(C)C(=O)C=C[C@]2(C)C2CC[C@@]3(C)C(c4ccoc4)OC(=O)C4O[C@@]43[C@]12C (stereo not given in full)
→ -2.6%	-29.0%
Cc1cccc(NC(=O)c2cc(Cl)nc3ccccc23)c1
→ -9.6%	-3.1%
COc1ccc(C2(CNC(=O)C(c3ccccc3)c3ccccc3)CCOCC2)cc1OC
→ ?	4.7%
O=C(CSc1nnc(-c2cccnc2)s1)Nc1cccc(C(=O)O)c1
→ i	-10.2%
O=C(O)CN1C(=O)C2C3CC(C2C1=O)C1C(c2ccc(F)cc2)c2sc(=O)[nH]c2SC31 (stereo not given)
→ i	-1.7%
COc1ccc(N/C=C(\C#N)S(=O)(=O)c2ccc(OC)cc2)cc1
→ -7.0%	-9.6%
COc1ccccc1CC(=O)NNS(=O)(=O)c1cccc([N+](=O)[O-])c1
→ i	0.0%
CC(=O)c1ccc(OCc2cn(CC(=O)c3ccc(O)cc3)nn2)cc1
→ -12.0%	2.7%
O=C(N/N=C\c1cccc(Cl)c1)c1ccc(Cn2cc(Br)c([N+](=O)[O-])n2)o1
→ -25.8%	-29.4%
COc1ccc(CCNC(=O)COc2ccc(S(=O)(=O)N3CCOCC3)cc2)cc1
→ -15.1%	-6.1%
O=C(Cn1c(-c2cccs2)cc2ccccc21)N1CCN(c2ccc(F)cc2)CC1
→ -5.7%	-6.3%
O=C(N/N=C/C=C\c1ccccc1[N+](=O)[O-])c1cc(-c2ccc3ccccc3c2)n[nH]1
→ ?	?
CC(/C=N/NC(=O)c1cc(-c2ccncc2)nc2ccccc12)=C\c1ccco1
→ ?	?
COc1cc(Cl)c(C)cc1NC(=O)CSc1nc2c(c(=O)[nH]1)CCCC2
→ -7.2%	9.5%
COC(=O)c1ccc(N2CCN(c3ccccc3)CC2)c(N)c1
→ -4.0%	-16.6%
Cc1ccccc1CSc1nsc(N)n1
→ -16.4%	-12.9%
CC1(C)NC(=O)N(CC(O)COc2ccc(-c3ccccc3)cc2)C1=O (stereo not given)
→ -3.2%	-15.6%
CC(C)n1cnc2c(oc3ccccc32)c1=O
→ -14.0%	-4.9%
CC(=O)NC(c1ccc(F)c(F)c1)c1nc(-c2cccc(F)c2)cs1 (stereo not given)
→ 23.4%	-1.9%
COc1ccc(OC)c(NC(=O)Cn2nc3c(cc2=O)CCCC3)c1
→ -5.8%	-5.4%
CCCNC(=O)C1(C)CCCN(C(=O)CN2C(=O)c3ccccc3C2=O)C1 (stereo not given)
→ 41.1%[activator]	-4.0%
Cc1cccc2sc(NC(=O)CCn3cccc3)nc12
→ -18.5%	-18.1%

Full records from above. Order of values: VACV mCherry inh	Vaccinia Venus
CC(/C=N/NC(=O)c1cc(-c2ccncc2)nc2ccccc12)=C\c1ccco1 as listed: ?	?
COc1ccc(OC)c(NC(=O)Cn2nc3c(cc2=O)CCCC3)c1 as listed: -5.8%	-5.4%
